High-throughput results: PubChem, National Center for Advancing Translational Sciences (NCATS)
SARS PLP yeast – blocks SARS-CoV papain-like protease in a yeast assay; actives 0.19% (n = 330,000); AID 485353; Potency, µM (series often up to 32.9 µM), inactives show top-dose activity, positive = growth rescue; S. cerevisiae expressing SARS-CoV PLpro, growth rescue; control for the full effect not named in the record; also: 0% is about no effect; nearly all actives have a fitted effect of over 55% in size; growth read by luminescence after 48 h
NS1 function inh – inhibitors of influenza NS1 protein function | Potency, µM (titrated, usually from 46.1 µM), inactives show at the top dose activity, positive = more growth | actives 0.4% (n = 270,000) | AID 2326 | S. cerevisiae slowed by influenza A NS1, growth recovery by OD600; also: actives are rising curves; nearly all actives have a fitted effect of over 50% in size
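In this qHTS, NS1 from influenza A is expressed in budding yeast, where it slows growth. Cells are switched from glucose to 2% galactose medium (pH 6.0, -URA), treated with compound, and growth recovery is read at OD600.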
Cruzain Triton – inhibitors of Trypanosoma cruzi cruzain with detergent. purified cruzain, Z-FR-AMC fluorescence, 0.01% Triton. AID 1478. actives 0.43% (n = 200,000). P25779. Potency, µM, for the others: max response, negative = inhibition, actives largely listed as inhibitors; active = well fitted curve in the direction sought with a large enough effect; inconclusive = small, poorly fitted or top-dose-only effect, or another doubt; inactive = no such curve, though single readings can be large; an effect the other way counts as inactive or inconclusive;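 also: plate controls were neutral wells for no effect and buffer without enzyme for full effect; nearly all actives have a fitted effect of over 40% in size; top concentration of the series not given in the record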
Target sequence (P25779 123-467 limits assumed): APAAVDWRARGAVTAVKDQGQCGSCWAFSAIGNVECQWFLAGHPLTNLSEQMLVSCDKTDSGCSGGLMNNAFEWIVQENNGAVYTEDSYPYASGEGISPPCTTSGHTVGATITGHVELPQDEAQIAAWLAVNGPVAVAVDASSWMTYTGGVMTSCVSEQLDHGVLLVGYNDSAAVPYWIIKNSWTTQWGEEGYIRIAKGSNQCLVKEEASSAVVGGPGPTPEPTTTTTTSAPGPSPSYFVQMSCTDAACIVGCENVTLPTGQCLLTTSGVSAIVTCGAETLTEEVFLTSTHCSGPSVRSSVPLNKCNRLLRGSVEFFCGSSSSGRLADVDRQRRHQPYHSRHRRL
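Cysteine protease activity tested under reducing, mildly acidic conditions (100 mM sodium acetate pH 5.5, 5 mM DTT) plus 0.01% Triton X-100. Cruzain 1.5 nM; substrate Z-FR-AMC 2 uM; 15 min compound preincubation at room temperature.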
Lassa entry inh – blocks Lassa virus binding to or entry into cells | Lassa virus pseudotype entry inhibition, cell reporter; control for the full effect not named in the record | Potency, µM (doses to about 37.9 µM), inactives show at the highest dose activity change, negative = inhibition, actives largely listed as inhibitors | actives 1.2% (n = 300,000) | AID 540256; active means well fitted inhibition curve with a large enough effect; inconclusive means small, poorly fitted or top-dose-only effect, or effect the other way; inactive means flat fitted curve, though single readings scatter; tested in HEK293 cells; also: % is scaled to controls: 0 for no effect and ±100 for the full control effect; nearly all actives have a fitted effect of over 50% in size; luciferase read-out
RE007 growth inh – less growth of the S. pombe RE007 Vpr strain. S. pombe RE007 Vpr strain, BacTiter-Glo ATP luminescence, 24 h; control for the full effect not named in the record. Potency, µM (titrated, usually from 92.2 µM), inactives show at the top dose activity change, negative = less growth. actives 0.21% (n = 360,000); active = well fitted falling curve with a large enough effect; inconclusive = small, poorly fitted or top-dose-only effect; inactive = no such curve, though single readings can be large or run the other way;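 also: % is scaled to controls: 0 for no effect and ±100 for the full control effect; nearly all actives have a fitted effect of over 50% in size; the assay follows cell death caused by Vpr and the record does not say whether a fall means rescue or toxicity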
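Fission yeast strain RE007, carrying one chromosomally integrated HIV-1 vpr copy, was seeded at OD 0.01 in PMG+AL medium with 23 nL pinned compound. After 24 h at 30 °C and 99% humidity, viability was read by BacTiter-Glo luminescence.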
MARV entry inh – inhibitors of Marburg virus binding or cell entry | Marburg virus pseudotyped entry inhibition, cell reporter; control for the full effect not named in the record; about a third of the inactives were read at about 46 µM | Potency, µM (doses to about 37.8 µM), for inactives: at the top dose activity change, negative = inhibition, usual class: inhibitors | actives 1.8% (n = 300,000) | AID 540276; active = well fitted inhibition curve with a large enough effect; inconclusive = small, poorly fitted or top-dose-only effect, or effect the other way; inactive = flat fitted curve, though single readings scatter; tested in HEK293 cells; about a fifth of its hits are not listed in these tables; also: % is scaled to controls: 0 for no effect and ±100 for the full control effect; luciferase read-out
StopGo reporter – lowers the luciferase signal of an FMDV 2A StopGo reporter; human cells with a luciferase reporter of 2A StopGo recoding; control for the full effect not named in the record; Potency, µM (doses to about 57.9 µM), for the others: at the top dose signal change, negative = less light; actives 1.2% (n = 410,000); active = well fitted falling curve with a large enough effect; inconclusive = small, poorly fitted or top-dose-only effect; inactive = no such curve, though single readings can be large or run the other way; tested in HEK293T cells; also: % is scaled to controls: 0 for no effect and ±100 for the full control effect; nearly all actives have a fitted effect of over 45% in size; luciferase light after 4 h
Cruzain inh noDet – inhibitors of Trypanosoma cruzi cruzain without detergent; P25779; Potency, µM, for inactives: max response, negative = inhibition, most hits filed as inhibitors; AID 1476; actives 2.3% (n = 200,000); purified cruzain, Z-FR-AMC fluorescence, no detergent; active = well fitted curve in the direction sought with a large enough effect; inconclusive = small, poorly fitted or top-dose-only effect, or another doubt; inactive = no such curve, though single readings can be large; an effect the other way counts as inactive or inconclusive;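 also: plate controls were enzyme without inhibitor for no effect and buffer without enzyme for full effect; nearly all actives have a fitted effect of over 40% in size; top concentration of the series not given in the record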
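Purified cruzain at 1.5 nM, pre-incubated 15 min with compound at room temperature in 100 mM sodium acetate pH 5.5, 5 mM DTT, 0.00005% Triton X-100. Reaction started with 2 uM Z-FR-AMC; AMC fluorescence increase over 60 s gives rate.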
* marks the source's active call; other numbers are inactive results; ? = inconclusive; / = not tested or not shown; & = joins results of further samples; [ ] = another dose, or the depositor's remark. Unless noted, calls follow the shape of the dose curve; as a rule, active means well fitted rising curve with a large enough effect; inconclusive means small, poorly fitted or top-dose-only effect; inactive means no such curve, though single readings can be large or run the other way. Potency is read from the fitted curve at half-maximal effect. Random draw from the library, and some 4.8% of all compounds hit somewhere here.

SMILES | SARS PLP yeast | NS1 function inh | Cruzain Triton | Lassa entry inh | RE007 growth inh | MARV entry inh | StopGo reporter | Cruzain inh noDet
C/C(N)=C(/C#N)C(=O)COC(=O)CNC(=O)c1ccc(Cl)cc1Cl | -7% | / | / | / | 2% | 4%[46.1 µM] | 51%[activator] | /
Cc1cc(C)n(C(C)CNS(=O)(=O)c2ccccc2)n1 (stereo not given) | 0% | 0% | / | -13%[46.1 µM] | 25% | 4%[46.1 µM] | 7% | /
CCc1ccc(NC(=O)CSc2nccn2-c2ccc(F)cc2)cc1 | / | / | -7.1% | 8%[46.1 µM] | / | / | 9% | 5%
O=C(CCc1nc2ccccc2c(=O)[nH]1)N1CCN(S(=O)(=O)c2cccc(F)c2)CC1 | -5% | 6% | / | 1% | 7% | 1% | -15% | /
O=C(NCc1cccs1)c1noc2c1CCCC2 | -2% | -4% | 0.6% | -4% | ? | 0% | 43%[activator] | -17%
COCCn1ccc2c(OCC(=O)Nc3cc(OC)ccc3OC)cccc2c1=O | 2% | / | / | ? | -1% | ? | -40% | /
Cc1ccc(NC(=O)COC(=O)c2ccc(S(=O)(=O)N3CCCC3)cc2)cc1 | 1% | / | / | 4% | 6% | 9% | -13% | /
COC(=O)CSc1nnc(CNc2ccc(Cl)cc2)n1-c1ccccc1 | -17% | -7% | 9.6% | 0% | -16% | 22% | -5% | 9%
Cc1ccccc1-c1nc(SCc2ccccn2)c2c(=O)n(C)c(=O)n(C)c2n1 | -1% | -6% | / | -2% | 2% | -4% | -10% | /
COc1ccc(NC(=O)C2=Cc3ccccc3OC2)cc1 | -3% | / | / | ? | -20% | ? | -46% | /
Cc1c(C(=O)N(Cc2cccc(F)c2)C2CCS(=O)(=O)C2)oc2cc(Br)ccc12 (stereo not given) | / | / | -7.7% | ? | / | ? | -24% | 18%
Cc1ccc(C)c2nc(SCC(=O)N3CCCc4ccccc43)c(C#N)cc12 | 3% | 12% | 2.7% | -19% | 9% | -26% | 13% | ?
CCCCN(CCCC)C(=O)CN(C)S(=O)(=O)c1ccc2c(c1)n(C)c(=O)c(=O)n2C | 7% | -1% | 1.5% | 24%[14.3 µM] | -5% | 2% | -15% | 11%
Cc1ccc(C)c(C(=O)COC(=O)c2nn(C)c(=O)c3ccccc23)c1 | 0% | / | / | 1% | 6% | 2% | -32% | /
O=C(N/N=C1\CC2CC=CC12)c1ccc(O)cc1 (stereo not given) | 2% | / | / | ? | 19% | 1%[46.1 µM] | -8% | /
CC(=O)Nc1nonc1-c1nnc(SCc2ccccc2C)n1C | / | / | -2.8% | -24%[46.1 µM] | / | 7%[46.1 µM] | -18% | -5%
[N-]=[N+]=NC(c1ccccc1)c1nc2ccccc2[nH]c1=O (stereo not given) | 0% | ? | / | 24% | 0% | ? | 0% | /
CCSc1ncc(/C=N/Nc2ccccc2)n1C | -12% | -9% | -5.2% | -30% | 49% | -2% | 21% | -8%
COC(=O)C1=C(N)OC2=C(C(=O)CCC2)C1c1ccccc1OC (stereo not given) | 2% | -1% | / | -7% | 3% | -1%[46.1 µM] | 7% | /
COCCCNC(=O)C1CCN(c2nc3ccc(Cl)cc3[nH]2)CC1 | / | / | 4.3% | -7%[46.1 µM] | / | / | 12% | 40%
COc1ccc(C(=O)CC(=O)C(=O)Nc2ccc(C)c(C)c2)cc1 | 0% | -3% | / | 11%[46.1 µM] | 0% | ? | -18% | /
CC(=O)O/N=C1\C(=O)N(Cc2ccc(C)cc2)c2ccccc21 | -7% | / | / | ? | 7% | ? | -18% | /
COCc1c(C(=O)OCc2nc(N)nc(Nc3ccccc3C)n2)oc2ccccc12 | -22% | -9% | -6.7% | ? | -1% | 23µM* | -5% | ?
C/C(=N/NC(=O)C(O)(c1ccccc1)c1ccccc1)c1ccc([N+](=O)[O-])o1 | 2% | / | / | ? | -20% | ? | -24% | /
O=C(CNC(=O)c1cccs1)c1ccc(F)cc1 | 13% | 8% | -0.3% | -22% | 6% | ? | -26% | 5%
CC(C(=O)NC1CCCC1)N(Cc1ccc2c(c1)OCO2)C(=O)c1snc(C(N)=O)c1N (stereo not given) | 6% | ? | -2.1% | 15% | 6% | 2%&-5% | 4% | 1%
O=C(c1ccc2[nH]c3c(c2c1)CCCC3)N1CCN(c2ccc(F)cc2)CC1 | -21% | 14% | -11% | -16% | -15% | -4% | -15% | -12%
O=C(COc1ccccc1F)NC1CC1 | 0% | 1% | 2.0% | 24% | -14% | ? | / | -5%
C=CCSc1nnc(-c2ccc(Cl)cc2Cl)o1 | -5% | -12% | -0.8% | -51% | ? | -29% | 6% | 5%
COC(=O)[C@H](C)NC(=O)COc1ccccc1 | 4% | 4% | 5.4% | 6% | 4% | -6% | -22% | -7%
CCc1nnc(NC(=O)C2=CCN(S(=O)(=O)c3ccccc3)CC2)s1 | -1% | 0% | / | / | 3% | / | 10% | /
Cc1cc(C)n(-c2nnc(NCc3ccc(Cl)cc3)nn2)n1 | -4% | / | / | -13%[46.1 µM] | -18% | ? | -8% | /
Cc1cc(F)ccc1NC(=O)CCCN(C)S(=O)(=O)c1ccc(F)cc1 | 1% | -9% | / | ? | -4% | 4%[46.1 µM] | -14% | /
O=C(Nc1ccccc1F)c1ccc2c(Cl)c3c(nc2c1)CCC3 | / | / | -8.7% | ? | / | / | 10µM* | 1%
Cc1[nH]c2ccccc2c1C(=O)COC(=O)c1c(-c2ccccc2Cl)noc1C | -75% | 4% | -7.9% | -9% | 7% | ? | -23% | -7%
O=C(NCC1COc2ccccc2O1)C1C2C=CC3(CN(Cc4cccs4)C(=O)C13)O2 (stereo not given) | 5% | -6% | 1.7% | 6% | -2% | -6%[46.1 µM] | -15% | -3%
CN1CCN(c2nc3c(c(=O)n(C)c(=O)n3C)n2Cc2ccc(F)cc2)CC1 | -2% | 9% | / | / | -6% | / | -8% | /
CCN(CC)CCN1C(=O)C(=O)/C(=C(/O)c2ccc(S(=O)(=O)N3CCOCC3)cc2)C1c1ccccc1 (stereo not given) | -1% | -1% | / | 1% | 34% | 1%[46.1 µM] | 3% | /
COc1cc(S(=O)(=O)N2CCOCC2)cc(C(=O)OCC(=O)NCc2ccco2)c1OC | 5% | / | / | -17% | 3% | -3% | -18% | /
CNC(=S)Nc1cccc(Cl)c1C | 0% | 3% | / | -22%[46.1 µM] | 9% | 12%[46.1 µM] | -17% | /
CCc1nn2c(=O)cc(COC(=O)c3cccc(NC(=O)c4ccccc4C)c3)nc2s1 | / | / | 0.7% | ? | / | / | -2% | -10%
Cc1ccc(-n2c(N)c(C(=O)NCc3ccco3)sc2=S)cc1 | -8% | -20% | -6.2% | -23% | 11% | -1% | -10% | -5%
COc1cccc(/C=N/NC(=O)CN(CCc2ccccc2)S(=O)(=O)c2ccc(NC(C)=O)cc2)c1 | 0% | 21% | -4.4% | ? | -3% | ? | ? | ?
COc1cccc(/C=N/Nc2ccc(S(=O)(=O)Nc3ccccc3C(=O)O)cc2[N+](=O)[O-])c1O | / | / | / | -8% | 15% | 29% | -14% | /
COc1ccc(NS(=O)(=O)c2cc(NC(=O)COc3ccccc3)ccc2N2CCOCC2)cc1 | -9% | / | / | ? | 1% | ? | 39%[activator] | /
O=C(/C=C/c1ccccn1)c1cc(Cl)cc(Cl)c1O | -3% | -42% | / | / | -14% | / | -22% | /
COC(=O)NC(C)N1C(=O)C2C3C=CC(C3)C2C1=O (stereo not given) | -2% | / | / | 3%[46.1 µM] | 10% | 2%[46.1 µM] | -9% | /
COc1cc(OC)c(N(C)S(=O)(=O)c2cccc(C(=O)Nc3nccs3)c2)cc1Cl | -23% | / | / | ? | 12% | 8.9µM* | ? | /
Cc1cccc(NC(=O)c2nc[nH]c2C(=O)Nc2ccccc2[N+](=O)[O-])c1 | 2% | 4% | -1.1% | -25% | 1% | 23% | 4% | 10µM*
CCc1ccc(NC(=O)C2CCC(CNS(=O)(=O)c3ccc4c(c3)C(C)(C)C(=O)N4C)CC2)cc1 (stereo not given) | / | / | -0.5% | -2%[46.1 µM] | / | / | -20% | 5%
(more compounds)
SMILES | SARS PLP yeast | NS1 function inh | Cruzain Triton | Lassa entry inh | RE007 growth inh | MARV entry inh | StopGo reporter | Cruzain inh noDet
COc1ccc2c(c1)c(C(=O)CN1CCCCC1)c(C)n2C | / | / | / | 3% | 1% | 0% | -3% | /
Cc1cc2nc(-c3ccc[nH]c3=O)n(Cc3ccc(F)cc3)c2cc1C | 2% | -1% | / | -12%[46.1 µM] | 9% | -12%[46.1 µM] | -1% | /
Cc1ccccc1NS(=O)(=O)c1ccc(Br)s1 | / | / | -2.4% | -5%[46.1 µM] | / | 1%[46.1 µM] | 16% | -5%
O=c1[nH]c(=O)n(CCc2ccc(F)cc2)c(O)c1/C=N/N1CCCCC1 | 4% | 2% | / | -16% | 4% | 17%[46.1 µM] | -3% | /
Cc1nn2c(-c3ccc(F)cc3)ccnc2c1Br | 1% | 1% | / | -15%[46.1 µM] | -7% | ? | -15% | /
Cc1cc(C)n2nc(SCC(=O)NC(=O)NCc3ccco3)nc2n1 | 4% | / | / | 21% | 17% | 10%[46.1 µM] | -16% | /
CCOC(=O)c1cc(-c2ccccc2)sc1NC(=O)CN1C(=O)NC(CC)(c2ccccc2)C1=O (stereo not given) | -14% | 17% | -9.4% | -3% | 15%[3.69 µM] | -19% | -2% | 10µM*
COc1nccnc1NS(=O)(=O)c1ccc(NCc2ccccc2O)cc1 | -5% | -4% | / | 0% | 0% | -1%[46.1 µM] | 8% | /
CC1CCCCN1C(=O)CSc1nc2c(c(=O)n(C)c(=O)n2C)n1C (stereo not given) | 4% | -5% | / | 9%[46.1 µM] | -7% | 2%[46.1 µM] | -8% | /
O=C(CCN1CCOCC1)N1CCCC(Nc2cccc(F)c2)C1 (stereo not given) | 0% | 24% | / | ? | -8% | 2%[46.1 µM] | 8% | /
CCOC(=O)c1[nH]c(C)c(C(=O)NCc2ccc(OC)cc2)c1C | 4% | 0% | -0.2% | / | -1% | / | -24% | -2%
CCn1c(SCC(=O)NCCc2ccc(OC)c(OC)c2)nc2c1c(=O)n(C)c(=O)n2C | 18% | 9% | 6.8% | 0% | 0% | ? | -16% | -10%
